Anaer choline gr = blocks anaerobic gram-negative growth on choline; Gram-negative bacterium anaerobic choline minimal medium, absorbance growth; active compounds read low; many inactives read as strong as hits in the columns shown; calls only; 0.2% of 55,000 active;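 active = growth z-score on choline under -2 at 7 or 20 h with little or no fall on glycerol, limits in tiers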;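 note: stock transfer was 300 nL into about 50 µL; the organism is E. coli; final concentration not given here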
Anaer choline gr early = also measured in Anaer choline gr; calls as there; z-score; measured here: choline growth z-score, timepoint 1;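 score of optical density at 7 h as mean of two plates; lower means less growth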
Starred values were filed as active, the others as inactive; i = inactive; & = joins results of further samples. Not all compounds are listed, so the mix of outcomes need not match the whole.

Anaer choline gr early,Anaer choline gr,SMILES
0.26,i,Cn1c(=O)c(C(=O)NC2CCN(Cc3ccccc3)CC2)nn(-c2ccc(Cl)cc2)c1=O
0.04,i,NC(=O)C1CCN(c2ncnc3c2oc2ccccc23)CC1
0.06,i,CC1=C(C(=O)Nc2ccccc2C(=O)NCc2ccccn2)SCCO1
1.22,i,COc1ccc(NC(=O)CSc2ccc(N3CCN(c4cccc(C)c4)CC3)nn2)cc1Cl
-0.19,i,CC(=O)Nc1ccc(S(=O)(=O)NCCc2sc3nc(-c4ccc(C)cc4)nn3c2C)cc1
0.96,i,CC(=O)Nc1c(-c2ccccc2)c(C)nn1-c1ccc(C(=O)Nc2ccc(S(N)(=O)=O)cc2)cc1
0.68,i,COCCNC(=O)NC1CCCN(c2cc(N(C)C)ncn2)C1 (stereo not given)
1.3,i,COc1ccccc1-c1cc(C(=O)N2CCOCC2)[nH]n1
0.38,i,COc1ccccc1NC(=O)N1CC2CCCN2c2ccccc21 (stereo not given)
0.82,i,Cc1c(C(=O)N(Cc2ccc(N(C)C)cc2)CC2CCCO2)oc2ccc(Br)cc12 (stereo not given)
-0.9,i,COc1ccccc1Nc1nc2nonc2nc1N1CCC(C)CC1
-0.12,i,Cc1ccc2[nH]cc(CCNC(=O)CCc3nnc(C(=O)Nc4ccccc4)s3)c2c1
0.6&-0.25&0.4&-1.07&0.7&0.84&0.26,i,CCN(CC)CC(=O)Nc1c(C)cccc1C
0.48,i,CC1(C)S[C@H]2C(NC(=O)C(N)c3ccccc3)C(=O)N2C1C(=O)O (stereo not given in full)
1.39,i,O=S(=O)(NCCn1c(-c2ccc(F)cc2)nc2cccnc21)c1ccc(C2CCCCC2)cc1
0.35,i,CNC(=O)C1CC(=O)N(C2CCCCC2)C1 (stereo not given)
-1.53,i,CCOC(=O)c1cn[nH]c1S(=O)(=O)N1CCN(CC)CC1
1.23,i,CCN1CCc2c(sc(-n3cccc3)c2CNC(=O)Nc2cccc(F)c2)C1
-1.36,i,CC(C)Oc1ccc(CN2C(=O)c3oc4ccccc4c3OCC2(C)C(=O)NC2CCCC2)cc1 (stereo not given)
0.04,i,C=CCSc1nc2nc[nH]c2c(=O)[nH]1

Copied from the listing, two compounds:
Anaer choline gr early,Anaer choline gr,SMILES
0.26,i,Cn1c(=O)c(C(=O)NC2CCN(Cc3ccccc3)CC2)nn(-c2ccc(Cl)cc2)c1=O
0.04,i,NC(=O)C1CCN(c2ncnc3c2oc2ccccc23)CC1

New compounds follow:
Anaer choline gr early,Anaer choline gr,SMILES
-1.09,i,COc1cccc(C(=O)N2CCN(Cc3nc(-c4ccc(C)cc4)oc3C)CC2)c1
-1.62,i,CCC(CC)C(=O)Nc1ccc(S(=O)(=O)N2CCC(c3nc4ccccc4s3)CC2)cc1
-1.24,i,CC(C)(C)C(=O)Nc1ccc(N2CCn3c(nc4cc(Cl)ccc43)C2)cc1
-1.57,i,Cc1[nH]c(C(=O)N2CCC(CC(=O)NCCc3c[nH]c4ccccc34)CC2)c(C)c1C
-0.09,i,O=c1nc(SCc2ccc(F)cc2)c2c(n1Cc1ccccc1)CCC2
0.99,i,CCOc1ccc(Br)cc1S(=O)(=O)N1CCN(c2nc(C)cc(N3CCN(C)CC3)n2)CC1
0.43,i,COc1ccccc1C1=NS(=O)(=O)N(C)C(C(=O)N(C)C2CCCCC2)=C1
-0.79,i,CN(Cc1ccccc1)c1ncnc2c1nnn2C
-0.83,i,O=S(=O)(c1ccc(Cl)cc1)N1CCn2cccc2C1c1ccc(F)cc1 (stereo not given)
1.43,i,CCOC(=O)c1c(NC(=O)C(C)n2c(-n3nc(C)cc3C)nc(C)c(CC)c2=O)sc2c1CCC2 (stereo not given)
-2.24,i,Cc1ccc2nc(NC(=O)CSc3ncnc4ccccc34)sc2c1
1.03,i,CCn1c(=O)c(SCC(=O)NCc2ccc(C)cc2)nc2ccccc21
-1.11,i,Cc1cc(C)n2nc(CN(C(=O)COc3ccccc3)c3ccccc3)nc2n1
1.16,i,O=c1ccc(N2CCN(S(=O)(=O)c3cccc4nsnc34)CC2)nn1-c1ccc(Cl)cc1
-0.51,i,CC1(C)O[C@@H]2C[C@H]3[C@@H]4C[C@H](F)C5=CC(=O)CC[C@]5(C)[C@H]4[C@@H](O)C[C@]3(C)[C@]2(C(=O)CO)O1
0.24,i,CC[C@H]1CN2CCc3cc(OC)c(OC)cc3[C@@H]2C[C@@H]1C[C@H]1NCCc2cc(OC)c(OC)cc21
-0.03,i,O=S1(=O)N=CN(c2ccc3c(c2)OCCO3)c2ncccc21
0.46,i,O=C(NCCCN1CCN(C2CCCCC2)CC1)c1cc(=O)n2c(nc3ccccc32)s1
1.05,i,Cc1nnc2c3ccccc3c(N3CCCCC3)nn12
1.27,i,COc1ccc(OC)c(CNC(=O)c2ccc(Oc3ccnc(-c4cccc(F)c4)n3)cc2)c1
-0.26,i,Cc1cccc2cc3c(nc12)N(C(=O)C(C)(C)C)CC3
0.59,i,Cc1ccc2oc(=O)c3cc(C(=O)Nc4nc(C)cs4)sc3c2c1
0.82,i,Cc1nc(CNC(=O)[C@H]2CSCN2S(=O)(=O)c2cc(C)c(C)cc2C)cs1
-0.96,i,CCOc1ccc(-c2c(C)nn3c(C)c(C(=O)Nc4ccc(OC)cc4)cnc23)cc1OCC
0.57,i,CCOc1ccc(-c2nc(CSc3nc4c(c(=O)[nH]3)CCC4)c(C)o2)cc1
-0.58,i,CCN1C(=O)c2ccccc2S(=O)(=O)c2ccc(C(=O)N3CCN(c4cccc(Cl)c4)CC3)cc21
-0.03,i,CCCNS(=O)(=O)c1cc(-c2nc(C)cs2)n(CC(=O)N2CCCCC2)c1
-0.88,i,CCC(C)(N)c1nnnn1-c1cccc(C)c1 (stereo not given)
0.83&0.56&-0.38,i,CCN1CCC[C@H]1CNC(=O)c1c(OC)ccc(Br)c1OC
1.08,i,Cc1cc2[nH]c(=O)[nH]c2cc1NS(=O)(=O)c1ccc(Br)cc1
-0.1,i,CCN1CCN(C(=O)C2CCCN(S(=O)(=O)c3cc(-c4noc(C)n4)ccc3Cl)C2)CC1 (stereo not given)
0.07,i,COc1cccc(-c2nc(Cn3cnc(S(=O)(=O)N4CCCCC4)c3)no2)c1OC
-0.15,i,Cc1ccc(S(=O)(=O)N(CCC(C)C)c2nc3nc(C)c(Cl)c(C)n3n2)cc1
-1.43,i,Cc1cc2nc(CSc3nnc(NC(=O)COc4ccc(F)cc4)s3)cc(=O)n2o1
-1.27,i,Cc1ccccc1S(=O)(=O)N1CCC2(CC1)NCCN=C2NCc1ccccc1Cl
0.28,i,Cc1cc(C)cc(C(=O)Nc2cc(C)nn2-c2ncnc3c2cnn3-c2ccc(Cl)cc2)c1
-0.41,i,O=C(NCCC1=CCCCC1)C1CCN(c2nc3nc[nH]c(=O)c3s2)CC1
0.8,i,NC(=O)C1(N2CCCCC2)CCN(c2c(-c3ccccc3)c3cc(Cl)ccc3[nH]c2=O)CC1
0.3,i,O=C(CCc1nc(-c2ccc(N3CCCC3)cc2)no1)NCCCN1CCOCC1
1.18,i,Cc1ccc(C(=O)Nc2ccc3c(c2)NC(=O)C(C)O3)cc1 (stereo not given)

Compound profiles (already shown):
Cc1ccc(S(=O)(=O)N(CCC(C)C)c2nc3nc(C)c(Cl)c(C)n3n2)cc1 in the list: Anaer choline gr early = -0.15; Anaer choline gr = i
CCOc1ccc(-c2c(C)nn3c(C)c(C(=O)Nc4ccc(OC)cc4)cnc23)cc1OCC in the list: Anaer choline gr early = -0.96; Anaer choline gr = i

(continued)
Anaer choline gr early,Anaer choline gr,SMILES
-1.76,i,COc1ccc(NC(=O)C2CCN(c3ncccc3-n3c(C)ccc3C)CC2)cc1
-0.3,i,O=C(Nc1ccc2[nH]ncc2c1)C1CCC1
0.12,i,CC1=C(c2ccc(C(C)C)cc2)S(=O)(=O)N(CC(=O)NCCCc2ccccc2)C1=O
0.7&-1.28&-0.09&-0.8,i,CC(C)Cn1c(=O)n(C)c(=O)c2[nH]cnc21
-1.04,i,COc1ccc(C2c3cc(OC)c(OC)cc3CC(=O)N2c2ccccc2)cc1OC (stereo not given)
-0.24,i,COc1cc(NC(=O)CS(=O)(=O)c2ccc3c(c2)S(=O)(=O)N=C(C)N3)cc(OC)c1
0.65,i,CCn1c(=O)c(N2CCC(C(=O)NCCc3cccc(OC)c3)CC2)nc2cccnc21
0.47,i,CC(C)(C)C(=O)NC1CCN(C(=O)C2CC2)C1 (stereo not given)
-0.15,i,Cc1ccc2[nH]cc(CCN3CC(C(=O)Nc4ccc(F)c(Cl)c4)CC3=O)c2c1 (stereo not given)
-0.89,i,CCCN(C(=O)COc1cc(=O)n(C)c2ccccc12)c1ccc(C(C)C)cc1
-0.01,i,CCOC(=O)c1c(C)c(C(=O)Nc2cccc(OC)c2)c(C)n1CC
0.95,i,CC(C)Cc1cc(-c2nn3c(-c4cnccn4)nnc3s2)n[nH]1
1.13,i,COC(=O)c1ccc(NC(=O)CSc2nnc(NC(=O)NC3CCCCC3)s2)cc1
-0.85,i,O=C(c1[nH]nc2c1CCc1ccccc1-2)N1CCc2[nH]nc(-c3ccc(F)cc3)c2C1
0.29,i,NC(=O)c1ccc[n+]([C@@H]2O[C@H](COP(=O)([O-])OP(=O)(O)OC[C@H]3O[C@@H](n4cnc5c(N)ncnc54)[C@H](O)[C@@H]3O)[C@@H](O)[C@H]2O)c1
-1.34&0.38,i,CCC(=O)OC(OP(=O)(CCCCc1ccccc1)CC(=O)N1C[C@H](C2CCCCC2)C[C@H]1C(=O)O)C(C)C (stereo not given in full)
0.38,i,Cc1ccc(-c2cc(N3CCN(S(=O)(=O)c4ccc(C)c(C)c4)CC3)ncn2)cc1
0.05,i,CCOc1ccc2c(c1)cc(C(=O)N1CCc3ccccc31)n2C
0,i,Cc1ccccc1CNC1=NCCNC12CCCC(C)C2 (stereo not given)
0.69,i,C[C@H]1NC(=O)NC1=O
0.54,i,CCc1ccc(NS(=O)(=O)c2cc(-c3nc(C(C)C)cs3)cs2)cc1
-1.6,i,Cc1cccc(C)c1N1C(=O)c2nccnc2C1=O
2.44,i,O=C(CSc1nc2ccccc2nc1Cc1ccc(Cl)cc1)N1CCNC1=O
0.33,i,COc1ccc(C(=O)Nc2ccccc2SCc2nnc(-c3ccccc3)o2)cc1
-0.61,i,O=C(c1cc(=O)nc2sc(N3CCCC3)nn12)N1CCC(N2CCCCC2)CC1
-0.65,i,Cc1cc(N2CCN(Cc3ccccc3)CC2)n2nc(-c3ccccc3)c(C)c2n1
-1.8,i,Cc1ccc(CN2C(=O)C3CCCCC3C2=O)cc1S(=O)(=O)Nc1ccc(Cl)cc1 (stereo not given)
-1.05,i,Cc1ccccc1-c1ccnc2c(-c3ccc(F)cc3)c(C)nn12
-0.1,i,Cc1nc2nc(-c3ccc(C(C)(C)C)cc3)nn2c(C)c1CC(=O)N1CCOCC1
-0.91,i,Cn1cc2c(n1)c(=O)n(Cc1ccc(F)cc1)c1nn(Cc3ccc(F)cc3)c(=O)n21
1.28,i,CC(=O)N1CCCN(S(C)(=O)=O)CC1
-0.66,i,CC1=C(c2ccccc2)S(=O)(=O)N(CC(=O)N2CCc3ccccc32)C1=O
-0.25,i,CC1CCN(C(=O)CCc2nc(-c3ccc(Cl)cc3)no2)CC1
-0.21,i,O=C(NCC1CCCCC1)C1CCN(c2cnc(N3CCCC3)nc2)CC1
0.68,i,COc1cccc(NC(=O)CSc2nc(-c3ccccc3)nc3cc(=O)[nH]n23)c1
-0.86,i,CCCc1cc(Sc2ccc(NC(=O)C(C)(C)C)cc2)n2ncnc2n1
0.88,i,CCOc1ccc(NC(=O)c2oc3ccc(F)cc3c2C)c2cccnc12
0.69,i,CCc1nc2ccccc2c(=O)n1Cc1noc(CN2C(=O)COc3ccc(Cl)cc32)n1
-1.58,i,C=CCn1c(=O)sc2cc(NC(=O)c3sccc3C)ccc21
1.83,i,COc1cc2c(C(=O)Oc3ccc4cnccc4c3)cn(-c3ccccc3)c(=O)c2cc1OC

Compounds listed so far that have a thiophene ring, fused or not:
Anaer choline gr early,Anaer choline gr,SMILES
1.23,i,CCN1CCc2c(sc(-n3cccc3)c2CNC(=O)Nc2cccc(F)c2)C1
1.43,i,CCOC(=O)c1c(NC(=O)C(C)n2c(-n3nc(C)cc3C)nc(C)c(CC)c2=O)sc2c1CCC2 (stereo not given)
0.59,i,Cc1ccc2oc(=O)c3cc(C(=O)Nc4nc(C)cs4)sc3c2c1
0.54,i,CCc1ccc(NS(=O)(=O)c2cc(-c3nc(C(C)C)cs3)cs2)cc1
-1.58,i,C=CCn1c(=O)sc2cc(NC(=O)c3sccc3C)ccc21

Further structures:
Anaer choline gr early,Anaer choline gr,SMILES
0.11,i,Fc1ccc(-c2nc(-c3ccc(-n4ccnc4)nc3)no2)cc1F
0.14,i,CS(=O)(=O)Nc1ccc([N+](=O)[O-])cc1OC1CCCCC1
1.29,i,CCN(CC)c1ccc(Nc2cc(C)nc3ncnn23)c(C)c1
0.09,i,COc1ccccc1OCC(=O)N1CCC(c2nc3ccccc3s2)CC1
-0.24,i,CCCCS(=N)(=O)CCC(N)C(=O)O (stereo not given)
-0.18,i,CCOC(=O)CS(=O)(=O)c1cc2c(cc1N)n(C)c(=O)c(=O)n2C
-0.05,i,COc1ccc2[nH]cc(C(=O)CN3CCN(C(=O)Nc4cc(C)ccc4OC)CC3)c2c1
1.03,i,CC1CCN(C(=O)CSc2c(C(C)C)cnc3c2c(=O)n(C)c(=O)n3C)CC1
0.41,i,N#CCC(C1CCCC1)n1cc(-c2ncnc3[nH]ccc23)cn1 (stereo not given)
-1.18,i,COC(=O)C1=CN(C2CC2)c2cc(N3CCCCC3)c(F)cc2S1(=O)=O
-0.63,i,COc1ccc(C2CC(=O)Nc3c2c(C)nn3-c2ccc3nncn3n2)cc1 (stereo not given)
0.53&-0.19&-0.02&-1.33&-1.24,i,COc1cc(-c2ccc(=O)[nH]n2)ccc1OC(F)F
-1.34,i,C=CCn1c(C2CCCN2C(C)=O)nc2ccccc21 (stereo not given)
-1.74,i,COc1ccc(NC(=O)C2CCCN2S(=O)(=O)c2ccc3c(c2)C(C)(C)C(=O)N3C)cc1 (stereo not given)
-0.12,i,COc1cc(OC)c(-n2nnc(-c3nsc(Nc4ccc(OC)c(OC)c4)n3)c2C)cc1Cl

Screening data deposited in PubChem by ICCB-Longwood Screening Facility, Harvard Medical School.
